Bioassay records (PubChem BioAssay)
Sfp PPTase inh = inhibitors of Bacillus subtilis Sfp phosphopantetheinyl transferase | Potency, µM, inactives show max response, negative = inhibition, usual class: inhibitors | 3.5% of 310,000 active | Biochemical Sfp PPTase activity, qHTS | Q9F4F7; active = well fitted inhibition curve with a large enough effect; inconclusive = small, poorly fitted or top-dose-only effect, or another doubt; inactive = no such curve, though single readings can be large or run the other way;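 also: the enzyme is Sfp with the accession as filed and its product quenches rhodamine fluorescence; potency is read from the fitted curve at half-maximal effect; 0% = enzyme reaction without inhibitor and -100% = no enzyme wells; top concentration of the series not given in the record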
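After 15 min at room temperature with compound, 15 nM Sfp received 5 uM rhodamine-CoA plus 12.5 uM BHQ-2-ybbR (50 mM Hepes pH 7.6, 10 mM MgCl2). Rate came from the fluorescence difference over 30 min, ex 525/em 598 nm.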
D2 PAM = potentiates the human D2 dopamine receptor allosterically | potentiation, % (no concentration beside the values) | DiscoveRx D2 beta-arrestin cells, luminescence, 90 min; 100% = 57 uM dopamine signal | 0.23% of 360,000 active | P14416; active = potentiation of 50% or more; inconclusive = 30% to 50%; inactive = 30% or less;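 also: compound concentration not given in the record; tested on top of an EC20 dose of dopamine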
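D2 cells co-treated with compound plus 50 nM dopamine (EC20) for 90 min at 37 deg C to detect potentiation. Beta-arrestin recruitment was read as enzyme-fragment luminescence after 1 h at ambient temperature. Full response was set by 57 uM dopamine.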
PINK1 expr mod = changes PINK1 expression. AID 624263. Potency, µM (titrated, usually from 76.6 µM), without a hit: at the top dose activation (PINK1 increase), most hits filed as activators. 0.2% of 410,000 active. PINK1 immunofluorescence, high-content cytometry, 24 h; active = well fitted activation curve with a large enough effect; inconclusive = small, poorly fitted or top-dose-only effect; inactive = flat fitted curve, though single readings scatter; cell line not stated here;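 also: potency is read from the fitted curve at half-maximal effect; % of control where 0% means no effect; nearly all actives have a fitted effect of over 65% in size; a mitochondrial uncoupler was the plate control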
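Measures PINK1 amount and localization on or inside mitochondria by immunofluorescence. Stable cells get compounds at 5 concentrations for 24 hours before fixation and staining; CCCP controls included.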
D2 ag = human D2 receptor agonism in beta-arrestin assay; P14416; DiscoveRx PathHunter D2 beta-arrestin, luminescence, 90 min; 100% = 57 uM dopamine signal; activation, % (test concentration not listed); 0.084% of 360,000 active; in the data active = activation above about 40%; inconclusive = about 15% to 40%; inactive = below about 15%; also: compound concentration not given in the record; the text of the record calls up to 30% inactive
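Agonist mode: compounds alone added to overnight-plated D2 PathHunter cells for 90 min at 37 C, with 57 uM final dopamine (EC100) defining full response. Beta-arrestin recruitment detected by chemiluminescent reagent, read after 1 h at ambient temperature.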
CtBP-E1A inh = inhibitors of CtBP/E1A interaction | AlphaScreen GST-E1A/His-CtBP binding, 1536-well; active compounds read low; control for the full effect not named in the record | 0.49% of 340,000 active | activity change, % (concentration not given with the values); in the data active means activity change below about -65%; inconclusive means about -30% to -65%; inactive means above about -30%; also: % is scaled to controls: 0 for no effect and ±100 for the full control effect
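Steps: dispense buffer (Tris pH 8.0, NaCl 300 mM, TCEP 1 mM, BSA, Tween 20); add 5X protein mix (GST-E1A, His-CtBP, 125 nM each); pin 23 nL compound; 2 h at 37 °C, dark; add 5X beads (50 ug/mL); 1 h; read.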
Six1-Eya2 blk = inhibitors of human Six1/Eya2 interaction; AlphaScreen GST-Six1/His-Eya2 binding, biochemical; active compounds read low; control for the full effect not named in the record; activity change, % (concentration not given with the values); 0.56% of 360,000 active; in the data active = activity change below about -65%; inconclusive = about -30% to -65%; inactive = above about -30%; also: % is scaled to controls: 0 for no effect and ±100 for the full control effect
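Homogeneous AlphaScreen proximity assay pairing GST-Six1 with His-tagged Eya2 (added as 5X mix: 250 nM and 500 nM) in 50 mM Tris pH 8.0, 300 mM NaCl, 1 mM TCEP. Glutathione donor and nickel acceptor beads; 1 h, 37 °C, dark.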
TRPV1 potentiator = potentiators of human vanilloid receptor 1 (TRPV1). Q8NER1. TRPV1-expressing cells, Fluo-8 calcium influx, capsaicin EC20 potentiation; host cell line not named in the record; control for the full effect not named in the record. potentiation, % at 8.33 µM. 0.02% of 320,000 active. AID 540277; active means potentiation above 80%; inconclusive means 30% to 80%; inactive means below 30%; also: 0% is about no effect
Target sequence (Q8NER1 whole entry, looked up): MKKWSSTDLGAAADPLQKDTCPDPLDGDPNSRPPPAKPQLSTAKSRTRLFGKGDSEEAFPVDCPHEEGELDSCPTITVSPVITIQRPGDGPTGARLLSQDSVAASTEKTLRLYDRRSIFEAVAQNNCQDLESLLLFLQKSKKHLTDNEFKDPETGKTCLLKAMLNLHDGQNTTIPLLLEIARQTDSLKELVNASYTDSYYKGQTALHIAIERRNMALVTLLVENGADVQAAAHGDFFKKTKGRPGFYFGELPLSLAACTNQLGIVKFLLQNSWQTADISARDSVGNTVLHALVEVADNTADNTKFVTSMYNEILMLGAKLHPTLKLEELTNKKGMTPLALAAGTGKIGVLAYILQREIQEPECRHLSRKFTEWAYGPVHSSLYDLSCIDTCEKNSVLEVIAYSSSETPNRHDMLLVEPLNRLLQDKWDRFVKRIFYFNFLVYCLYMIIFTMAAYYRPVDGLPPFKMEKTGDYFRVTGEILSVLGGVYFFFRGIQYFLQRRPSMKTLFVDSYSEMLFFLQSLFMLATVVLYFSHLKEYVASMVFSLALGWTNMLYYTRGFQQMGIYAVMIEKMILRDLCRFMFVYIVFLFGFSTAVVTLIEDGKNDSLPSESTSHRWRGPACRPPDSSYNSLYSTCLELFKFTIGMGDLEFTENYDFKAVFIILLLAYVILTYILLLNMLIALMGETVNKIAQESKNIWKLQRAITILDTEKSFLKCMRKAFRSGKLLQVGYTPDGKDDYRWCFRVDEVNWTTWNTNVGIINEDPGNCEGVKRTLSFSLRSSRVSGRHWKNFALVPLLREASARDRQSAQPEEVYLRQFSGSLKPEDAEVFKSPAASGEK
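TRPV1-expressing cells were cultured overnight at 35.5C and loaded with Fluo-8 calcium dye for 40 to 90 min at room temperature. After a 10 s baseline, compound was added and calcium influx was read kinetically for 3 min (ex 480/em 520 nm).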
An asterisk follows results filed as active; ? = inconclusive; / = no result given; [ ] = remark or other dose.

SMILES | Sfp PPTase inh | D2 PAM | PINK1 expr mod | D2 ag | CtBP-E1A inh | Six1-Eya2 blk | TRPV1 potentiator
C#CCNc1c(C)c(C)nc2ncnn12 | 5% | -6 | 9.2%[38.3 µM] | 1.7 | 3 | 1 | -1
Cc1sc2ncnc(SCC(=O)N3CCCC(C(N)=O)C3)c2c1C (stereo unspecified) | / | 1 | 0.1% | 4.7 | 4 | 1 | -9
O=C(NCCN1CCCCC1)c1cc(Cl)ccc1Cl | 10% | -24 | 2.0% | 2.1 | 7 | 11 | -3
COc1ccc(C2c3cc(OC)c(OC)cc3CC3C(=O)OCC32)cc1OC (stereo unspecified) | / | -9 | 0.0% | 1.8 | 1 | 8 | /
COc1ccc(Nc2ccccc2)c(C)c1 | 8% | -4 | 4.4%[38.3 µM] | -1.1 | -21 | -25 | 2
CN(C(=O)c1ccc(NC(=O)Cc2ccc(NC(=O)C3CCCN(C(=O)C4CC4)C3)cc2)cc1)C1CC1 (stereo unspecified) | / | 4 | 0.8% | 1.0 | 7 | 10 | 11
Clc1ccc(-c2nc3ncccn3c2Nc2ccc3c(c2)OCCO3)cc1 | 9% | -4 | ? | -4.3 | 1 | -3 | /
COc1ccc(Cl)cc1NC(=O)CN(C)C(=O)c1cc(-c2cccs2)nn1-c1ccccc1 | / | -17 | -1.9% | -2.5 | -7 | -13 | 19
OCCN1CCN(c2ncnc3c2ncn3[C@H]2CN(Cc3ccncc3)C[C@@H](CO)O2)CC1 | / | -15 | 0.6% | -2.3 | 9 | 6 | /
O=C(O)c1ccc(-n2nncc2-c2ccco2)cc1 | 0% | -5 | -1.1% | -0.5 | 9 | -4 | 13
CC(C)=CCC12Oc3cc(O)ccc3C1(O)Oc1cc(O)c([C@H]3C=C(C)CC(c4ccc(O)cc4O)[C@H]3C(=O)c3ccc(O)cc3O)c(O)c1C2=O (stereo partly specified) | / | 3 | -0.8% | -1.8 | -4 | -6 | /
Cc1cc(C)c(C)c(OCCOCCNCc2ccccc2)c1 | -18% | -33 | 19% | 0.8 | 1 | 2 | 6
CC1(C)C(=O)Nc2ccccc2N1C(=O)COc1ccc(S(=O)(=O)N2CCOCC2)cc1Cl | -5% | -20 | 0.2% | -2.6 | 1 | -10 | 21
CC(C)(C)N(NC(=O)Nc1ccccc1)C(=O)c1ccccc1Cl | 12% | -2 | 1.7% | -3.8 | 4 | 3 | ?
CCCN=C1CC(C)(C)CC(=O)/C1=C(/O)CCCN1C(=O)c2ccccc2C1=O | -11% | -1 | 1.6% | -7.1 | 5 | 1 | 21
O=C(CSc1nc2ccccc2c(=O)n1CC1CCCO1)Nc1ccccc1Cl (stereo unspecified) | -3% | -7 | 2.2% | 1.3 | 18 | 0 | 3
O=C(CSCc1ccccc1Cl)NNC(=S)Nc1ccccc1 | 9% | -27 | ? | -2.1 | -14 | -8 | 15
CS(=O)(=O)N1CCN(c2ccccc2NC(=O)c2cccnc2Cl)CC1 | 4% | -5 | 5.2% | -4.2 | 2 | -8 | -25
CC1(C(=O)Nc2cccc(C(F)(F)F)c2)Cc2c(-c3cccc(C(N)=O)c3)ccnc2O1 (stereo unspecified) | / | 1 | 1.4% | 6.7 | -2 | -2 | /
COc1cccc(OC)c1C(=O)NC(=S)Nc1ccc(S(=O)(=O)Nc2nccs2)cc1 | 4% | -6 | 0.1% | -0.1 | 4 | -11 | -3
COc1ccc(C(=O)N/C(=C\c2ccco2)C(=O)NCc2cccnc2)cc1 | ? | -1 | 1.7% | -1.5 | -2 | 7 | -3
N/C(=N\OC(=O)c1cccc(Br)c1)c1ccccn1 | 16% | ? | -1.6% | ? | 6 | 2 | -14
CN(C)c1ccc(C(=O)NC2CCCc3ccccc32)cc1 (stereo unspecified) | 14% | -7 | 11% | -3.0 | -18 | -13 | 16
O=C(CSc1ccc(Cl)cc1)OCC(=O)N1CCN(c2ccccc2)CC1 | / | -18 | 0.2% | -3.5 | -4 | 2 | 0
Cc1nnc2c(SC(C)C)nc3ccccc3n12 | 3% | -38 | -2.3% | -6.4 | / | -3 | 8
CN(C)S(=O)(=O)c1ccc(C(=O)OCC(=O)c2csc(N3CCCCC3)n2)cc1 | / | -4 | 3.8% | -1.8 | 17 | 1 | 4
CC(C)c1nnc(NC(=O)C2CCCCC2)s1 | 13% | -3 | 2.3% | -1.2 | 5 | 6 | 2
C=CCN1C(=O)C(CCCC)NC1=S (stereo unspecified) | 5% | -6 | 1.5% | -3.9 | -3 | 9 | -4
Cn1c2ccccc2c2n[nH]c(=S)nc21 | ? | -14 | -0.9% | -1.7 | -79* | -83* | -8
COC(=O)c1ccc2c(=O)n(CCN3CCOCC3)c(SCC(=O)c3ccccc3)nc2c1 | 13% | -5 | 0.7% | -0.4 | 6 | 26 | -11
COCCOC(=O)c1ccc(NC(=O)COc2ccc([N+](=O)[O-])cc2)cc1 | 6% | -11 | 1.0% | -2.5 | 1 | -1 | 2
COc1cc(OC)c(C(=O)/C=C/c2ccccc2)c(O)c1O | -21% | -46 | 2.0% | -7.4 | 1 | -1 | -17
CCOc1ccccc1Nc1nc(-c2sc(C)nc2C)cs1 | ? | -4 | 5.0% | 1.7 | 20 | 6 | 5
CC(=O)Nc1sc(C)c(C)c1C(=O)OCC(=O)N(C)c1c(N)n(Cc2ccccc2)c(=O)[nH]c1=O | / | -4 | -0.3% | -0.4 | -4 | 5 | -4
Clc1ccccc1OCc1nc(-c2ccccn2)no1 | -1% | -2 | 0.5% | 0.3 | / | -4 | 7
O=C(Cc1ccccc1)NC(NCCc1ccccc1)C(Cl)(Cl)Cl (stereo unspecified) | 7% | -5 | -0.8% | -5.2 | 14 | 7 | -6
COc1ccc(/C=C2\SC(=S)N(CCCC(=O)N3CCCCC3CCO)C2=O)cc1 (stereo unspecified) | -11% | -26 | 1.4% | 0.3 | ? | -13 | 9
COc1cccc(C(=O)CN2C(=O)C(C)(C)Oc3ccc(C(=O)N4CCCCCC4)cc32)c1 | -6% | -7 | -0.3% | -3.0 | -6 | -8 | 1
Cc1ccccc1NCC(=O)N/N=C\C=C\c1cccc([N+](=O)[O-])c1 | -27% | 0 | 1.5% | -1.7 | -9 | -15 | 6
C[C@]12c3[nH]c4cc(-c5ccco5)ccc4c3CCN1C(=O)[C@@H](CC(=O)NCCc1ccccn1)C[C@@H]2C(=O)N1CCCCC1 | / | -6 | 0.7% | -0.7 | -13 | -8 | /
CCOc1cc(C(=O)CCC(=O)OCC(=O)N2c3ccccc3NC(=O)C2(C)C)ccc1O | 6% | -13 | 2.5% | 2.4 | 1 | 2 | -6
CCCCNc1c2c3c(cccc3n(C)c1=O)C(=O)c1ccccc1-2 | -12% | -6 | 18%[38.3 µM] | -0.2 | 15 | 37 | 2
CC[C@]12c3[nH]c4cc(CCC(=O)N(C)C)ccc4c3CCN1C(=O)[C@@H](CC(=O)NCc1cccc(C(F)(F)F)c1)C[C@@H]2C(=O)N1CCN(C(=O)C2CC2)CC1 | / | -9 | 1.2% | -2.2 | -1 | 0 | /
O=C(Nc1nc2c(s1)CCCC2)c1cc(-c2ccncc2)nc2ccccc12 | -10% | -19 | ? | -3.6 | -6 | -1 | 20
C=CCNC(=O)c1cc2nc(C3CC3)cc(C(F)F)n2n1 | 16% | 0 | 3.4%[38.3 µM] | -0.3 | -2 | -1 | -3
Cc1ccc(Oc2coc3cc(OC(=O)c4cccs4)ccc3c2=O)cc1 | 7% | -6 | -6.5%[38.3 µM] | 0.1 | -5 | -19 | -11
CSc1ncc(CN2CCc3c([nH]c4ccccc34)C2c2cccc(O)c2)cn1 (stereo unspecified) | 6% | -11 | ? | -2.1 | 1 | -12 | -10
O=C(/C=C/c1ccc(F)cc1)Nc1cccc(S(=O)(=O)N2CCOCC2)c1 | / | 13 | 3.5% | 1.2 | -8 | -8 | /
CCOC(=O)N1CCN(S(=O)(=O)c2ccc(Cl)cc2)CC1 | 2% | 1 | -1.3% | 13 | / | -3 | 14
Cc1cc(N2CCOCC2)nc2ccc(NC(=O)CCC(=O)N3CCCC(C)C3)cc12 (stereo unspecified) | -2% | 5 | 2.4%[38.3 µM] | -2.2 | 4 | -2 | -3
COc1ccccc1OCCSc1nc2ccccc2n1CCO | -4% | 0 | -1.1% | -2.0 | 4 | 5 | -3
CCc1cccc(CC)c1NC(=O)CN1CCN(c2ccccc2)CC1 | ? | -11 | 5.3%[38.3 µM] | 9.4 | 1 | -2 | -6
Cc1nc2c(-c3ccccc3)cnn2c(N2CCOCC2)c1C | -6% | -2 | -0.4% | -2.9 | 24 | 19 | -1
Cc1cc[n+](CCC(=O)O)c2ccccc12 | 1% | 9 | -0.2% | -2.7 | 1 | -3 | 0
O=C(O)C(C=C(Cl)Cl)N1CCOCC1 (stereo unspecified) | / | -3 | 0.2% | -4.1 | 0 | 11 | /
C=CCNC(=S)N1CCN(CCN=CC2=C(O)CC(c3ccc(Cl)cc3)CC2=O)CC1 (stereo unspecified) | -2% | 7 | -0.6% | 2.0 | 15 | 2 | 7
CCCC(=O)Nc1nnc(S(=O)(=O)N2CCCC2)s1 | 7% | 0 | 1.3% | -3.0 | 3 | 0 | 18
Cc1noc(C)c1CSc1nnc(-c2ccccc2)o1 | 10% | -6 | 2.3% | 1.0 | 7 | 2 | -4
Cc1cccc(OCc2nnc(SCC(=O)N3c4ccccc4CC3C)n2C)c1C (stereo unspecified) | -18% | -20 | 0.2% | -5.6 | -3 | -7 | -4
CN(C)C(CNC(=O)CCc1nc2ccccc2s1)c1ccccc1 (stereo unspecified) | 10% | -13 | 0.4% | -0.5 | 8 | 1 | -7

Given as comma-separated lines: 4 of the compounds above.
Structure,Sfp PPTase inh,D2 PAM,PINK1 expr mod,D2 ag,CtBP-E1A inh,Six1-Eya2 blk,TRPV1 potentiator
COc1ccccc1OCCSc1nc2ccccc2n1CCO,-4%,0,-1.1%,-2.0,4,5,-3
CCc1cccc(CC)c1NC(=O)CN1CCN(c2ccccc2)CC1,?,-11,5.3%[38.3 µM],9.4,1,-2,-6
Cc1nc2c(-c3ccccc3)cnn2c(N2CCOCC2)c1C,-6%,-2,-0.4%,-2.9,24,19,-1
Cc1cc[n+](CCC(=O)O)c2ccccc12,1%,9,-0.2%,-2.7,1,-3,0
